HIV Env fusion: inhibitors of HIV Env-mediated cell fusion | HeLa-JRFL Env/CEM21 cell fusion, luciferase | AID 651610 | actives 1.1% (n = 360,000) | inhibition, % at 12.3 µM;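 active means mean replicate inhibition score of at least 50 and every replicate individually at or above 50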;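 further: 0% = plate neutral controls and 100% = maraviroc near 300 nM; one replicate is shown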
UUG fidelity: alters start codon recognition fidelity in yeast; S. cerevisiae UUG-firefly luciferase reporter, luminescence/redox ratio; activity score, % at 18.7 µM; actives 0.13% (n = 350,000);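 active means replicate mean at a twofold rise or more, about +100% in these data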;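 further: firefly luciferase made from a UUG start codon reports start codon fidelity; reporter light over untreated wells divided by growth signal over untreated wells; some hits fall short of that in this replicate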
Active calls of the source: *; [ ] = dose if it differs, or a comment.

SMILES | HIV Env fusion | UUG fidelity
C[C@H](CO)N1C[C@H](C)[C@@H](CN(C)Cc2cccnc2)Oc2cc(C3=CCCCC3)ccc2S1(=O)=O | 13.4[16.7 µM] | -6.8
O=C(C[C@@H]1CC[C@@H](NC(=O)c2cccnc2)[C@@H](CO)O1)NCCN1CCCCC1 | 1.1[16.7 µM] | 4.2
CCCN(C)C[C@@H]1OCCCC[C@@H](C)Oc2ccc(NS(=O)(=O)c3cccs3)cc2C(=O)N([C@H](C)CO)C[C@@H]1C | 0.9[16.7 µM] | -6.4
Cc1ccc(S(=O)(=O)Nc2ccc3c(c2)C(=O)N([C@@H](C)CO)C[C@@H](C)[C@@H](CN(C)CC2CCCCC2)OCCCC[C@@H](C)O3)cc1 | 22.2[16.7 µM] | 28.2
C[C@H]1CCCCO[C@@H](CN(C)Cc2ccc(C(F)(F)F)cc2)[C@@H](C)CN([C@@H](C)CO)C(=O)c2cc(N(C)C)ccc2O1 | 40.7[16.7 µM] | 10.2
C[C@H]1CN([C@@H](C)CO)C(=O)c2cc(-c3ccc(C(=O)N(C)C)cc3)cnc2O[C@H]1CN(C)Cc1ccc(C(=O)O)cc1 | 5.8[16.7 µM] | -12.1
Cc1ccc(-c2cnc3c(c2)C(=O)N([C@H](C)CO)C[C@@H](C)[C@H](CN(C)C(=O)c2ccc(F)cc2)O3)cc1 | -20.0[16.7 µM] | 5.3
C[C@@H]1CN([C@H](C)CO)C(=O)Cc2cc(N(C)C)ccc2O[C@@H]1CN(C)C(=O)Nc1ccc2c(c1)OCO2 | 2.6[16.7 µM] | -3.4
C/C=C/c1ccc2c(c1)O[C@H](CN(C)C(=O)c1cnccn1)[C@@H](C)CN([C@@H](C)CO)S2(=O)=O | -1.4[16.7 µM] | 1.4
COc1ccc(NC(=O)Nc2ccc3c(c2)[C@@H]2C[C@@H](CC(=O)NCC4CC4)O[C@@H](CO)[C@@H]2O3)cc1 | -46.6[16.7 µM] | 57.0*
O=C(C[C@@H]1CC[C@H]2[C@@H](COC[C@@H](O)CN2Cc2ccc3c(c2)OCO3)O1)N1CCCCC1 | 1.2[16.7 µM] | -8.5
CNC[C@@H]1Oc2c(NS(=O)(=O)c3ccc(F)cc3)cccc2C(=O)N([C@H](C)CO)C[C@H]1C | 1.4[16.7 µM] | -2.1
Cc1noc(C)c1S(=O)(=O)N(C)C[C@H]1Oc2c(NS(=O)(=O)c3ccccc3)cccc2C(=O)N([C@@H](C)CO)C[C@H]1C | 7.7[16.7 µM] | -5.2
C[C@@H]1CCCCO[C@H](CN(C)Cc2ccc3c(c2)OCO3)[C@H](C)CN([C@H](C)CO)C(=O)c2cc(NC(=O)c3ccccc3)ccc2O1 | 4.1[16.7 µM] | 16.5
C[C@@H]1CCCCO[C@H](CN(C)C(=O)CCC(F)(F)F)[C@@H](C)CN([C@H](C)CO)C(=O)c2cc(NC(=O)NC3CCCCC3)ccc2O1 | -7.7[16.7 µM] | 6.3
O=C(N[C@H]1CC[C@@H](CCNC(=O)C2CCC2)O[C@H]1CO)c1ccccn1 | -5.3[16.7 µM] | 13.6
C[C@H]1CN([C@@H](C)CO)C(=O)Cc2cc(NC(=O)Nc3ccc4c(c3)OCO4)ccc2O[C@H]1CN(C)Cc1ccc(C(=O)O)cc1 | -12.0[16.7 µM] | -4.6
Cc1ccccc1-c1cnc2c(c1)C(=O)N([C@@H](C)CO)C[C@H](C)[C@@H](CN(C)Cc1cncnc1)O2 | -3.1[16.7 µM] | 10.8
C[C@H](CO)N1C[C@H](C)[C@H](CN(C)CC2CCCCC2)Oc2ccc(NC(=O)C3CC3)cc2C1=O | 8.7[16.7 µM] | -11.2
COc1ccc(-c2ccc([C@@H]3[C@H](C#N)N(C(=O)C4CC4)[C@H]3CO)cc2)cc1 | 5.8[16.7 µM] | 24.6
CO[C@@H]1CN(C)C(=O)c2ccc(NC(=O)CN(C)C)cc2OC[C@@H](C)N(C(=O)C2CCCCC2)C[C@H]1C | 5.5[16.7 µM] | 6.9
Cc1noc(C)c1S(=O)(=O)Nc1ccc2c(c1)C(=O)N([C@@H](C)CO)C[C@@H](C)[C@@H](CN(C)C(=O)CCCN(C)C)OCCCC[C@@H](C)O2 | -8.0[16.7 µM] | -0.2
CNC[C@@H]1Oc2ccc(NS(C)(=O)=O)cc2CC(=O)N([C@@H](C)CO)C[C@@H]1C | -6.9[16.7 µM] | -0.2
COc1ccc(NC(=O)N(C)C[C@H]2Oc3ccc(NC(=O)Nc4ccc(F)cc4)cc3C(=O)N([C@H](C)CO)C[C@H]2C)cc1 | 6.3[16.7 µM] | 13.5
CO[C@@H]1CN(C)C(=O)c2cc(NS(=O)(=O)c3cccc(F)c3)ccc2OC[C@@H](C)N(Cc2cc(F)ccc2F)C[C@H]1C | -17.5[16.7 µM] | 1.9
O=C(C[C@@H]1C[C@@H]2c3cc(NC(=O)Nc4ccccc4F)ccc3O[C@@H]2[C@@H](CO)O1)NCc1ccccn1 | 10.1[16.7 µM] | -18.8
CN1C(=O)c2cc(NC(=O)c3cccs3)ccc2OC[C@H]2O[C@@H](CC(=O)NCC3CC3)CC[C@H]21 | 3.0[16.7 µM] | 15.2
CCC(=O)N(C)C[C@H]1Oc2cc(C#Cc3ccccn3)ccc2S(=O)(=O)N([C@H](C)CO)C[C@H]1C | -9.2[16.7 µM] | -1.1
COc1ccccc1CNC(=O)C[C@@H]1CC[C@H]2[C@@H](COc3ccc(NC(C)=O)cc3C(=O)N2C)O1 | -5.2[16.7 µM] | 12.0
C[C@H](CO)N1C[C@H](C)[C@H](CN(C)C(=O)Nc2ccc(C(F)(F)F)cc2)Oc2ccc(NC(=O)Cc3cn(C)c4ccccc34)cc2C1=O | 20.2[16.7 µM] | -14.7
CNC[C@@H]1OCCCC[C@@H](C)Oc2ccc(NC(=O)Nc3ccc(F)cc3)cc2C(=O)N([C@H](C)CO)C[C@@H]1C | -4.6[16.7 µM] | -4.2
CCS(=O)(=O)Nc1ccc2c(c1)C(=O)N(C)[C@@H]1CC[C@@H](CC(=O)N3CCOCC3)O[C@@H]1CO2 | 12.9[16.7 µM] | -7.9
CO[C@@H]1CN(C)C(=O)c2cc(NS(=O)(=O)c3ccccc3)ccc2OC[C@@H](C)N(C(=O)NC(C)C)C[C@H]1C | 1.1[16.7 µM] | 1.4
CN1CCN(C(=O)C[C@H]2CC[C@H]3[C@H](COc4ccc(NC(=O)C5CCCCC5)cc4C(=O)N3C)O2)CC1 | 11.4[16.7 µM] | 1.0
Cc1noc(C)c1NC(=O)N(C)C[C@H]1Oc2ccc(NC(=O)Nc3ccccc3)cc2C(=O)N([C@@H](C)CO)C[C@@H]1C | 19.2[16.7 µM] | -2.2
C[C@@H]1CN([C@@H](C)CO)C(=O)c2cc(NC(=O)c3ccncc3)ccc2O[C@@H](C)CCCCO[C@@H]1CN(C)S(=O)(=O)c1cn(C)cn1 | 19.9[16.7 µM] | -4.8
C[C@@H]1CCCCO[C@@H](CN(C)CC2CCCCC2)[C@@H](C)CN([C@@H](C)CO)C(=O)c2cc(NC(=O)Nc3ccc(F)cc3)ccc2O1 | 1.3[16.7 µM] | 24.7
Cc1ccc(S(=O)(=O)N(C)C[C@@H]2OCCCC[C@@H](C)Oc3ccc(NS(C)(=O)=O)cc3C(=O)N([C@@H](C)CO)C[C@H]2C)cc1 | 8.3[16.7 µM] | 14.4
CO[C@@H]1CN(C)C(=O)c2ccc(NC(=O)Nc3cc(F)ccc3F)cc2OC[C@H](C)NC[C@H]1C | -1.6[16.7 µM] | 18.3
O=C(NCC[C@@H]1CC[C@H](NC(=O)C2CCCC2)[C@H](CO)O1)Nc1ccc(Cl)cc1 | -7.9[16.7 µM] | 0.0

A draw from above in order of SMILES length, rising:
SMILES | HIV Env fusion | UUG fidelity
O=C(NCC[C@@H]1CC[C@H](NC(=O)C2CCCC2)[C@H](CO)O1)Nc1ccc(Cl)cc1 | -7.9[16.7 µM] | 0.0
CCC(=O)N(C)C[C@H]1Oc2cc(C#Cc3ccccn3)ccc2S(=O)(=O)N([C@H](C)CO)C[C@H]1C | -9.2[16.7 µM] | -1.1
Cc1noc(C)c1S(=O)(=O)Nc1ccc2c(c1)C(=O)N([C@@H](C)CO)C[C@@H](C)[C@@H](CN(C)C(=O)CCCN(C)C)OCCCC[C@@H](C)O2 | -8.0[16.7 µM] | -0.2

New compounds follow
SMILES | HIV Env fusion | UUG fidelity
Cc1noc(C)c1S(=O)(=O)N(C)C[C@H]1Oc2ccc(NC(=O)CCC(F)(F)F)cc2CC(=O)N([C@@H](C)CO)C[C@@H]1C | -2.2[16.7 µM] | 5.3
C[C@H]1CCCCO[C@H](CN(C)Cc2ccc3c(c2)OCO3)[C@@H](C)CN([C@@H](C)CO)C(=O)c2cc(NC(=O)CCCN(C)C)ccc2O1 | -15.0[16.7 µM] | -0.7
C[C@H]1CN([C@@H](C)CO)C(=O)c2cccc(NC(=O)Nc3ccc(C(F)(F)F)cc3)c2O[C@H]1CN(C)Cc1ccccc1 | -5.7[16.7 µM] | -5.6
C[C@H](NC(=O)C[C@@H]1CC[C@@H](NC(=O)C2CCC2)[C@H](CO)O1)c1ccccc1 | 16.5[16.7 µM] | -4.3
O=C(C[C@H]1CC[C@@H](NC(=O)CN2CCOCC2)[C@H](CO)O1)NC1CCC1 | 0.5[16.7 µM] | -12.6
CCC(=O)N1C[C@@H](O)COC[C@@H]2O[C@H](CC(=O)NCC3CCCCC3)CC[C@H]21 | 12.7[16.7 µM] | -3.4
CCNC(=O)C[C@H]1CC[C@@H](NS(=O)(=O)c2ccc(C)cc2)[C@H](CO)O1 | -20.9[16.7 µM] | -8.5
C[C@H]1CN([C@@H](C)CO)C(=O)c2cc(-c3ccc(F)cc3)cnc2O[C@H]1CN(C)Cc1ccccn1 | -8.6[16.7 µM] | -8.5
CCCN1C[C@H](C)[C@H](OC)CN(C)C(=O)c2ccc(NC(=O)C3CCOCC3)cc2OC[C@@H]1C | 11.7[16.7 µM] | -9.8
COc1ccc(S(=O)(=O)N(C)C[C@H]2Oc3c(NS(C)(=O)=O)cccc3C(=O)N([C@@H](C)CO)C[C@@H]2C)cc1 | -3.5[16.7 µM] | -3.8
CCCC#Cc1ccc2c(c1)O[C@H](CN(C)C(=O)c1cnccn1)[C@@H](C)CN([C@@H](C)CO)S2(=O)=O | -18.3[16.7 µM] | -3.4
C[C@@H]1CN([C@H](C)CO)C(=O)c2cc(NC(=O)Cn3cnnn3)ccc2O[C@@H]1CN(C)CC1CC1 | 3.1[16.7 µM] | 9.8
O=C(N[C@H]1CC[C@@H](CCNS(=O)(=O)Cc2ccccc2)O[C@H]1CO)c1ccccc1F | -22.2[16.7 µM] | 169.8*
C[C@@H]1CN([C@H](C)CO)C(=O)c2cc(NC(=O)C3CCCCC3)ccc2O[C@@H](C)CCCCO[C@@H]1CN(C)Cc1ccc(C(F)(F)F)cc1 | 13.0[16.7 µM] | 9.8
O=C(NCC[C@@H]1CC[C@H](NC(=O)C2CCCC2)[C@H](CO)O1)c1cc(Cl)cc(Cl)c1 | 4.5[16.7 µM] | -1.7
C=CC[C@@]1(C(=O)N2CCCCC2)N=C(c2ccc(OCCCO)cc2)O[C@@H]1c1ccccc1 | 13.0[16.7 µM] | -6.0
CO[C@H]1CN(C)C(=O)c2cc(NS(=O)(=O)c3ccc(Oc4ccccc4)cc3)ccc2OC[C@@H](C)NC[C@H]1C | -11.2[16.7 µM] | -5.5
Cc1noc(C)c1NC(=O)N(C)C[C@@H]1Oc2ncc(C#CC3CCCC3)cc2C(=O)N([C@H](C)CO)C[C@@H]1C | -12.6[16.7 µM] | 8.8
Cc1ccc(F)cc1S(=O)(=O)N[C@@H]1CCN(Cc2cccc3[nH]ccc23)C1 | 1.2[16.7 µM] | 5.3
C[C@@H]1CN([C@H](C)CO)C(=O)Cc2cc(NC(=O)Nc3ccc4c(c3)OCO4)ccc2O[C@@H]1CN(C)Cc1ccc(C(=O)O)cc1 | 12.3[16.7 µM] | -10.9

Entries above that bear a hit mark in UUG fidelity.
SMILES | HIV Env fusion | UUG fidelity
COc1ccc(NC(=O)Nc2ccc3c(c2)[C@@H]2C[C@@H](CC(=O)NCC4CC4)O[C@@H](CO)[C@@H]2O3)cc1 | -46.6[16.7 µM] | 57.0*
O=C(N[C@H]1CC[C@@H](CCNS(=O)(=O)Cc2ccccc2)O[C@H]1CO)c1ccccc1F | -22.2[16.7 µM] | 169.8*

The list continues.
SMILES | HIV Env fusion | UUG fidelity
C[C@@H]1CN([C@@H](C)CO)C(=O)c2cc(NC(=O)NC3CCCCC3)ccc2O[C@@H](C)CCCCO[C@H]1CN(C)S(=O)(=O)c1cccs1 | -3.9[16.7 µM] | -13.9
COc1ccc([Si](C)(C)[C@H]2[C@H](CCO)O[C@@]3(C(=O)N4c5c(cc(OC)cc53)C(C)=CC4(C)C)[C@@H]2C)cc1 | 34.1[16.7 µM] | -3.7
C[C@@H]1CN([C@@H](C)CO)C(=O)c2cc(NC(=O)NC3CCCCC3)ccc2O[C@@H](C)CCCCO[C@H]1CN(C)C(=O)Nc1ccccc1 | -68.3[16.7 µM] | -8.5
Cc1ccc(S(=O)(=O)N(C)C[C@H]2Oc3c(NC(=O)Nc4ccccc4)cccc3C(=O)N([C@H](C)CO)C[C@H]2C)cc1 | 15.8[16.7 µM] | 4.1
CNC[C@H]1Oc2ccc(NC(=O)Nc3ccc(OC)cc3)cc2C(=O)N([C@H](C)CO)C[C@@H]1C | -3.2[16.7 µM] | 0.6
N#C[C@H]1[C@H](c2ccccc2)[C@@H](CO)N1C(=O)Cc1ccccc1 | -3.6[16.7 µM] | 4.6
O=C(C[C@@H]1C[C@H]2c3cc(NS(=O)(=O)c4ccc(F)cc4)ccc3O[C@H]2[C@H](CO)O1)NC1CCCC1 | 0.9[16.7 µM] | -13.8
COc1ccc(S(=O)(=O)Nc2ccc3c(c2)CC(=O)N([C@H](C)CO)C[C@H](C)[C@H](CN(C)C(=O)Nc2cccc4ccccc24)O3)cc1 | 5.2[16.7 µM] | -3.8
CO[C@H]1CN(C)C(=O)c2cc(NC(=O)NC(C)C)ccc2OC[C@@H](C)N(C(=O)CC2CC2)C[C@@H]1C | -7.0[16.7 µM] | -0.8

Source: PubChem BioAssay

A portion of the library (hit frequency here may not be typical).
